High-throughput results (PubChem BioAssay)
Rango complex inh – inhibitors of Rango-importin beta complex formation | Q14974 | Rango CFP/YFP FRET sensor + importin beta, 45 min | Potency, µM (highest dose often 92.2 µM), inactives show at the highest dose inhibition of complex formation | 340,000 compounds, 0.031% hits | AID 540263; active = rising FRET ratio curve, often small or poorly fitted; inconclusive = mostly compound fluorescence or quenching in the first reads; inactive = flat curves in all reads;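 further: potency means the concentration at half of the fitted maximal effect; 0% = DMSO wells and 100% = buffer wells lacking importin beta; nearly all actives have a fitted effect of over 15% in size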
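FRET biosensor Rango (snurportin 1 IBB between N-terminal EYFP and C-terminal Cerulean), 50 nM in PBS/1 mM DTT/0.02% Tween-20/0.1% BSA, preincubated 5 min RT with compound; 0.125 microM importin beta added, 45 min RT, CFP/YFP FRET ratio read.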
miR-21 FLuc – miR-21 reporter, rising signal. HeLa miR-21 FLuc reporter, luciferase, 48 h. Potency, µM (titrated, usually from 38.3 µM), for inactives: at the highest dose reporter change, positive = more light. 340,000 tested, under 10 active; active = well fitted rising curve with a large enough effect; inconclusive = small, poorly fitted or top-dose-only effect; inactive = no such curve, though single readings can be large or run the other way;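 further: % of control where 0% means no effect; miR-21 action dims this reporter so a rising signal means less miR-21 action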
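HeLa cells endogenously expressing miR-21, stably carrying CMV-driven firefly luciferase with a downstream miR-21 binding site, 2000 cells/well. Titrations up to approximately 40 uM, 48 hours; luciferase luminescence read.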
GLA inh pH 4.5 – blocks human alpha-galactosidase A at pH 4.5; purified enzyme, 4-MU-alpha-Gal fluorescence, pH 4.5; activity change, negative = inhibition, % at 105 µM; 230,000 tested, under 10 active; AID 1467; inconclusive = small, poorly fitted or top-dose-only inhibition, or a rising curve; inactive = flat fitted curve, though single readings scatter; no compound was filed as active;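 further: 0% = full activity with enzyme and -100% = basal without enzyme; dose as in the result columns while the protocol names 77 µM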
Target sequence (P06280 whole entry, looked up): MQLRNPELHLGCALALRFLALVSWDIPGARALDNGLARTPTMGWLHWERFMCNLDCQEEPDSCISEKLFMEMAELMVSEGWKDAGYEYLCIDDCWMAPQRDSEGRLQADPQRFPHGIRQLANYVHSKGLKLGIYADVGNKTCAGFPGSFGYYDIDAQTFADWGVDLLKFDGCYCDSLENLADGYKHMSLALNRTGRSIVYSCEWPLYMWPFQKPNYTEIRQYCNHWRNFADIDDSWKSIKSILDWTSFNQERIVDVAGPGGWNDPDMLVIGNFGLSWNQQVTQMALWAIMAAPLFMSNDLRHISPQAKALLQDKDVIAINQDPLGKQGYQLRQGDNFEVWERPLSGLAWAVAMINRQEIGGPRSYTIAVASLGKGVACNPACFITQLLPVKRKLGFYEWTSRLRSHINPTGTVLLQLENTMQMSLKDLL
Rango dissoc inh – prevents RanGTP from dissociating the Rango-importin beta complex; O95149+P62826; Biochemical FRET Rango-importin beta, RanGTP-induced dissociation; Potency, µM (titrated, usually from 46.1 µM), for the others: top-dose activity change, negative = inhibition; 340,000 compounds, 0.071% hits; AID 540253; active means falling FRET ratio curve, often poorly fitted, with flat reads before Ran was added; inconclusive means other falling curves, or compound fluorescence or quenching; inactive means flat or rising ratio curve;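 further: potency means the concentration at half of the fitted maximal effect; % of control where 0% means no effect; nearly all actives have a fitted effect of over 45% in size; -100% = wells without RanGTP and RCC1; the record marks most hits as doubtful in a second field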
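Rango FRET biosensor (snurportin-1 IBB flanked by N-terminal EYFP and C-terminal CFP10) at 0.1 uM, with 0.25 uM importin beta in PBS, 1mM DTT, 0.02% Tween-20, 0.1% BSA. 0.6 uM Ran, 2mM GTP and 0.2 uM RCC1 were then added for 45 min at room temperature. Inhibition read as loss of FRET rise.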
The depositor's hits bear a star; ? = inconclusive; / = not tested or not shown; & = joins results of further samples; [ ] = dose if it differs, or a comment. This is a subset (hit frequency here may not be typical).

1) COc1ccc([N+](=O)[O-])cc1NC(=O)C(C)Sc1nc(-c2ccccc2)cs1 (configuration not stated)
2) CC1=Nc2ccc(C)cc2/C1=C/c1c(N)n2oc(C)cc2nc1=O
3) COC(=O)c1ccc(C2Nc3ccc(/C(C)=N/NC(=O)C(OC)c4ccccc4)cc3C3C=CCC32)cc1 (configuration not stated)
4) CCNC(=O)c1cc(S(=O)(=O)N(C)C)c(Cl)cc1Cl
5) O=C1c2ccccc2C(=O)C12Cc1ccccc1N1CCN(c3ccccc3)CC12 (configuration not stated)
6) CCc1noc(C)c1C(=O)OCC(=O)c1ccc(OC)c(OC)c1
7) CCOC(=O)c1cnc2c(-c3ccccc3)c(C)nn2c1N
8) O=C(Cn1cnc2cc([N+](=O)[O-])ccc2c1=O)Nc1cccc(S(=O)(=O)N2CCOCC2)c1
Screen / compound no.	1	2	3	4	5	6	7	8
Rango dissoc inh	4%	?	-4%	32%	5%	3%	-25%	-8%
miR-21 FLuc	1%	-6%&-2%	-13%	-1%	-3%	/	-29%	-10%
GLA inh pH 4.5	-7	-4&-5	-10	6	3	/	0	9
Rango complex inh	3.2%	?	0.0%	-0.3%	?	-0.4%	-0.4%	-0.1%

9) CC(=O)Nc1ccc(S(=O)(=O)NCCC(=O)OC(C)C(=O)NC2(C#N)CCCCC2)cc1 (configuration not stated)
10) COc1ccc2nc(SCC(=O)NN)cc(C)c2c1
11) CCOC(=O)[C@H]1[C@H]2COc3ccc(Br)cc3[C@@H]2N2C(=O)CN(CC3CCCO3)C(=O)[C@@]12C (some centres not stated)
12) CCOC(=O)c1nn(-c2ccc(F)cc2)c(=O)c2c(N)scc12
13) Cc1cnc(C(=O)OC(C)C(=O)NCc2ccccc2)cn1 (configuration not stated)
14) N#Cc1cc2cc3c(cc2nc1SCC(=O)N1CCCC1)OCCO3
15) CCOCCCNCc1cc(Cl)cc(Cl)c1OCC
16) COc1ccc(Cn2nnnc2CN(CCCN2CCOCC2)Cc2cc3cc(OC)ccc3[nH]c2=O)cc1
Screen / compound no.	9	10	11	12	13	14	15	16
Rango dissoc inh	-3%	1%	1%	-2%	3%	7%	-4%	6%
miR-21 FLuc	/	-12%	/	-21%	/	-48%	2%	9%
GLA inh pH 4.5	/	-2	/	9	/	/	3	6
Rango complex inh	-0.1%	1.3%	-0.8%	-0.8%	0.4%	2.6%	?	0.3%

17) COc1ccc(S(=O)(=O)Cc2ccccc2)cc1N
18) OCC1(Cc2cccc(C(F)(F)F)c2)CCN(Cc2cc3ccccc3o2)CC1
19) CCOC(=O)C1(CCOc2ccccc2)CCN(Cc2cccc(OC)c2O)CC1
20) COCCNC(=O)c1c(N)sc2c1CCCC2
21) CN(C)C(=O)N1CCC(C(=O)NCc2ccc(F)cc2Cl)CC1
22) Cc1cc(C)c(C(=O)CSc2nnc(C)s2)c(C)c1
23) Cc1cc(S(=O)(=O)Nc2ccc3c(c2)n(C)c(=O)n3C)ccc1F
24) CCOCCCNC(=O)C1CCN(S(=O)(=O)c2ccc(C)cc2)CC1
Screen / compound no.	17	18	19	20	21	22	23	24
Rango dissoc inh	5%	7%	2%	/	0%	29%	12%	18%
miR-21 FLuc	-7%	10%	24%	4%	-1%	-17%	11%	-1%
GLA inh pH 4.5	1	-12	/	-2	5	4	7[21.1 µM]	-1
Rango complex inh	0.8%	-0.6%	-5.2%	/	-0.2%	-2.5%	?	-4.9%

Compound profiles, as listed above. Screens in order: Rango dissoc inh, miR-21 FLuc, GLA inh pH 4.5, Rango complex inh
CCOCCCNC(=O)C1CCN(S(=O)(=O)c2ccc(C)cc2)CC1 reads 18%, -1%, -1, -4.9%
COc1ccc(Cn2nnnc2CN(CCCN2CCOCC2)Cc2cc3cc(OC)ccc3[nH]c2=O)cc1 reads 6%, 9%, 6, 0.3%

Next compounds follow:
25) O=c1c2ccccc2c(-c2ccccc2)nn1Cc1ccccc1
26) COc1ccccc1C(=O)Nc1ccc(C)cc1C(=O)c1ccccc1
27) COCCNC(=O)COC(=O)C1=Cc2ccccc2OC1
28) CCO[C@H]1OC(C(=O)N2CCCCCCC2)=C[C@@H](c2csc3ccccc23)[C@@H]1CCCO
29) CC(C)Cc1nnc(NC(=O)c2cccc(S(=O)(=O)N3CCN(C)CC3)c2)s1
30) O=C(Cn1ncc2c(=O)oc3ccccc3c21)N1CCN(c2ccccn2)CC1
31) COc1cccc(/C=C2\Sc3ccc(C(=O)NCC4CCCO4)cc3N(C)C2=O)c1 (configuration not stated)
32) CSc1ccccc1C(=O)NCCc1ccc(S(=O)(=O)N2CCCCC2)cc1
Screen / compound no.	25	26	27	28	29	30	31	32
Rango dissoc inh	-2%	16%	1%	15%	15%	4%	10%	-10%
miR-21 FLuc	0%	-23%	-2%	-8%	/	-1%	5%	8%
GLA inh pH 4.5	-5	-2	2	-4	/	-1	/	-16
Rango complex inh	1.1%	3.0%	0.3%	1.6%	-1.6%	0.0%	?	-1.8%

Some of these compounds in order of count of non-hydrogen atoms, falling:
16) COc1ccc(Cn2nnnc2CN(CCCN2CCOCC2)Cc2cc3cc(OC)ccc3[nH]c2=O)cc1
28) CCO[C@H]1OC(C(=O)N2CCCCCCC2)=C[C@@H](c2csc3ccccc23)[C@@H]1CCCO
19) CCOC(=O)C1(CCOc2ccccc2)CCN(Cc2cccc(OC)c2O)CC1
18) OCC1(Cc2cccc(C(F)(F)F)c2)CCN(Cc2cc3ccccc3o2)CC1
32) CSc1ccccc1C(=O)NCCc1ccc(S(=O)(=O)N2CCCCC2)cc1
26) COc1ccccc1C(=O)Nc1ccc(C)cc1C(=O)c1ccccc1
24) CCOCCCNC(=O)C1CCN(S(=O)(=O)c2ccc(C)cc2)CC1
23) Cc1cc(S(=O)(=O)Nc2ccc3c(c2)n(C)c(=O)n3C)ccc1F
21) CN(C)C(=O)N1CCC(C(=O)NCc2ccc(F)cc2Cl)CC1
13) Cc1cnc(C(=O)OC(C)C(=O)NCc2ccccc2)cn1 (configuration not stated)
Screen / compound no.	16	28	19	18	32	26	24	23	21	13
Rango dissoc inh	6%	15%	2%	7%	-10%	16%	18%	12%	0%	3%
miR-21 FLuc	9%	-8%	24%	10%	8%	-23%	-1%	11%	-1%	/
GLA inh pH 4.5	6	-4	/	-12	-16	-2	-1	7[21.1 µM]	5	/
Rango complex inh	0.3%	1.6%	-5.2%	-0.6%	-1.8%	3.0%	-4.9%	?	-0.2%	0.4%

27) COCCNC(=O)COC(=O)C1=Cc2ccccc2OC1
22) Cc1cc(C)c(C(=O)CSc2nnc(C)s2)c(C)c1
20) COCCNC(=O)c1c(N)sc2c1CCCC2
Screen / compound no.	27	22	20
Rango dissoc inh	1%	29%	/
miR-21 FLuc	-2%	-17%	4%
GLA inh pH 4.5	2	4	-2
Rango complex inh	0.3%	-2.5%	/

Further structures follow:
33) CCN1CCN(Cc2cc(=O)oc3cc(C)cc(C)c23)CC1
34) N#Cc1cnn(Cc2ccccc2)c1N
35) O=C(CSc1ncnc2c1cnn2-c1ccccc1Cl)N1CCN(C(=O)c2ccco2)CC1
36) CCOc1ccccc1N(C(=O)c1snc(C(N)=O)c1N)C(CC)C(=O)NC1CCCC1 (configuration not stated)
37) COc1ccc(Cl)cc1NC(=O)Cn1c(C)csc1=O
38) CN(CC(=O)Nc1ccccc1Cl)C(=O)COC(=O)c1nc(Cl)c(Cl)c(Cl)c1Cl
39) CC1CCCCC12NC(=O)N(CC(=O)Nc1nccs1)C2=O (configuration not stated)
40) Clc1ccc(-c2ccc(CNCC3CCCO3)o2)cc1 (configuration not stated)
Screen / compound no.	33	34	35	36	37	38	39	40
Rango dissoc inh	15%	-4%	2%	0%	10%	32%	-1%	21%
miR-21 FLuc	-6%	2%	-2%	2%	/	?	/	-54%
GLA inh pH 4.5	-6	-14	7	/	/	/	/	2
Rango complex inh	-2.7%	-3.8%	-1.1%	0.9%	-6.2%	1.1%	-2.2%	2.6%

41) O=C(OC1CCOC1=O)c1cccc(S(=O)(=O)Nc2cccc(Cl)c2)c1 (configuration not stated)
42) CCNC(=O)C(C)NC(=O)C1=NN(c2ccccc2)C(=O)CC1 (configuration not stated)
43) NCCCCCc1nnc(SCc2ccccc2Cl)o1
44) CCC(=O)NNc1nc2c(F)cc(F)cc2s1
45) Cc1ccc(NC(=O)COC(=O)CNC(=O)c2ccco2)cc1
46) CN1CCc2nc(NC(=O)COc3ccc(C#N)cc3)sc2C1
47) C/C=C/C1=CC(=O)C[C@H](c2ccc(F)cc2)C1
48) CCCCN(C(=O)C(C)Oc1ccc(Cl)cc1)c1c(N)n(CCCC)c(=O)[nH]c1=O (configuration not stated)
49) Clc1ccccc1OCc1nnc2n1CCCCC2
50) CN(Cc1ccccc1)C(=O)c1nc[nH]c1C(=O)N(C)Cc1ccccc1
Screen / compound no.	41	42	43	44	45	46	47	48	49	50
Rango dissoc inh	9%	6%	-9%	1%	-2%	?	-7%	13%	-12%	-5%
miR-21 FLuc	-4%	7%	25%	-1%	-1%	1%	/	/	-13%	/
GLA inh pH 4.5	-13	/	-9	-2	-12	-2	/	/	-9	/
Rango complex inh	?	-1.1%	?	1.2%	1.5%	?	0.4%	?	7.3%	1.8%
